# High-throughput results from PubChem BioAssay.
# Prx2 Sm inh – Schistosoma mansoni Prx2 inhibition | S. mansoni Prx2 activity coupled to TGR/GSH (TGR is thioredoxin glutathione reductase), NADPH fluorescence loss, qHTS; some inactives read as strong as hits | Potency, µM | hit rate 0.07% among 65,000 | AID 448; active means full or partial inhibition curve with a strong effect at the top dose; inconclusive means weaker partial or single-point curve; inactive means no accepted curve; note: series up to 57 µM; many of its hits are not listed in these tables
#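 Coupled assay in which S. mansoni TGR passes NADPH reducing equivalents via glutathione to Prx2, which reduces H2O2. Compounds were preincubated 15 min at room temperature with 25 nM TGR/50 nM Prx2 mix. Kinetic NADPH fluorescence loss (ex 365/em 450 nm) was monitored.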
# LT uptake inh – blocks cellular internalization of anthrax lethal toxin | Cells, anthrax lethal toxin internalization, FRET ratio (460/530) | Potency, µM (series often up to 40 µM), inactives show at the top dose activity change, negative = inhibition, hits mostly inhibitors | hit rate 0.67% among 70,000 | AID 912; active = well fitted falling ratio curve with the 530 nm signal flat; inconclusive = other ratio curves, or a change in one channel alone; inactive = flat curves in the ratio and both channels; the % refers to the ratio; note: % is set by controls: 0 for no effect and ±100 for the full control effect; nearly all actives have a fitted effect of over 50% in size; tested in ME-180 cells; beta-lactamase reporter
# * marks the source's active call; other numbers are inactive results; ? = inconclusive; / = no result given; [ ] = remark or other dose. Potency is the fitted concentration of half-maximal effect.
SMILES,Prx2 Sm inh,LT uptake inh
CCCCCCN(C(=O)CCCCCN1C(=O)NC(C2CCCCC2)C(C(=O)OCc2ccccc2)=C1C)C(C(=O)NCCCC)c1ccc(OCC(=O)OC)c(C(=O)OC)c1 (stereo not given),/,?
CCOc1ccccc1N1CCN(Cc2ccc(OC)c(OC)c2OC)CC1,>57,-7.7%
Cc1cc(C(=O)OCC(=O)Nc2nc(-c3ccccc3)cs2)c(C)o1,>57,-7.0%
COc1ccccc1OCCCCCc1c(C)n[nH]c1C,/,9.8%
CN1C(=O)C(O)(CC(=O)c2cccc(-n3cccc3)c2)c2ccccc21 (stereo not given),>57,-2.8%
COc1ccccc1N1CCN(C(=O)Nc2cccc(C)c2)CC1,>57,-11.1%
CCCC(=O)C1=C(O)C(C(=O)OC)C(C)(C)CC1=Nc1ccccc1 (stereo not given),>57,-1.8%
COc1ccc(OC)c(CNc2nc3ccccc3n2CCN2CCCCC2)c1,>57,/
FC(F)(F)c1cccc(N2CCN(c3nnnn3-c3ccccc3)CC2)c1,>57,-19.7%
CCOC(=O)COc1cc(=O)n(CC)c2ccccc12,>57,-4.7%
O=C(NCCOC(=O)C1COc2ccccc2O1)c1cccnc1 (stereo not given),>57,-0.6%
c1cc2c(c(NC3=NCCN3)c1)CCCC2,>57,?
Cc1nc(SCC(=O)NCc2ccco2)nc(C)c1C,>57,5.4%
C(=C\c1ccccc1)/CSc1nnc(-c2cnccn2)n1Cc1ccco1,>57,/
CCCC(=O)Nc1sc(C(=O)OC)c(C)c1C(N)=O,>57,-3.9%
Fc1cccc(Cl)c1Cn1nnc2c(NCc3ccccn3)ncnc21,>57,-3.6%
COC(=O)[C@@]1(Cc2ccc(F)cc2)[C@H]2c3cc(C(=O)N4CCCC4)n(CCc4c[nH]c5ccc(OC)cc45)c3C[C@H]2CN1C(=O)c1ccccc1,>57,?
COc1ccccc1N1CCN(C(=O)C2CCC(Cn3c(=S)[nH]c4ccccc4c3=O)CC2)CC1 (stereo not given),>57,?
CNC(=O)c1cc2c(=O)n3cccc(C)c3nc2n(C(C)C)c1=N,/,?
Cn1nnnc1SCc1c(F)cccc1F,>57,?
COC(=O)c1ccc(CSc2nc3c(c(=O)n2-c2ccc(C)cc2)SCC3)o1,>57,12.0%
CCCC(=O)Nc1ccccc1NC(=O)CN(C)S(=O)(=O)c1ccc(C)cc1,>57,-3.8%
CCOC(=O)NCc1cc(-c2nn(C)c(=O)c3ccccc23)ccc1C,>57,-8.0%
CCOC(=O)c1cc2c(=O)n3ccccc3nc2n(CC2CCCO2)c1=NC(C)=O (stereo not given),>57,?
CC(C)C(c1nnnn1C1CCCC1)N1c2ccccc2CC1C (stereo not given),>57,?
O=C(CN1C(=O)c2ccccc2S1(=O)=O)NCc1cccnc1,>57,-5.2%
COc1nc(N(C)C)nc(N(OC)S(=O)(=O)c2ccccc2Cl)n1,>57,-8.0%
CCOC(=O)CNC(=O)CSc1nnc(-c2ccccc2OC)n1CC,>57,/
O=C(c1cc(-c2ccc(Cl)cc2)on1)N1CCOCC1,>57,3.0%
NC(=O)C[C@@H]1N[C@]2(C(=O)Nc3ccccc32)[C@@H]2C(=O)N(c3cc(C(F)(F)F)ccc3Cl)C(=O)[C@H]12,>57,/
CSCC[C@H](NC(=O)OC(C)(C)C)c1nnc(SCC(=O)Nc2ccc(C)cc2C)o1,>57,13.4%
O=S(=O)(N1CCOCC1)N1CCN(c2ccccc2F)CC1,>57,-2.7%
CCCCCOC(=O)C1[C@H]2C(=O)N(c3ccccc3CC)C[C@]23C=C[C@H]1O3 (stereo not given in full),>57,0.9%
O=c1c(-c2cc(F)cc(F)c2)nc2cnc(N3CCNCC3)nc2n1Cc1ccc(F)cc1,>57,?
Cc1cc(SCC(=O)c2ccccc2)nc2ccccc12,>57,-21.6%[8 µM]
COc1ccc(S(=O)(=O)N2CCC(C(=O)N3CCCCC3)CC2)cc1OC,?,-7.9%
COc1cccc(-c2nc(CSCC(=O)NCC3CCCO3)c(C)o2)c1 (stereo not given),>57,2.7%
CS(=O)(=O)Nc1cccc(-c2cncnc2NCc2ccccc2)c1,>57,-13.0%
Cc1cccc(OCCC(=O)Nc2c(C)n(C)n(-c3ccccc3)c2=O)c1,>57,9.1%
Cc1ccsc1-c1nc(CSCC(=O)N2CCN(c3ccccc3)CC2)c(C)o1,>57,15.8µM*
COc1ccc(NC(=O)c2ccco2)cc1NC(=O)c1cccc(OC(C)C)c1,>57,?
Cc1ccc(-n2c(SCC(=O)Nc3ccc4c(c3)OCO4)nnc2-c2cccs2)cc1,>57,-22.6%
O=C(NC1CCCCCCC1)c1ccc(CNc2c(N3CCOCC3)c(=O)c2=O)cc1,>57,15.3%
COc1ccc(NS(=O)(=O)c2cc(C(=O)O)ccc2C)cc1,>57,2.8%
Cc1cc(=O)[nH]c(SC/C=C/c2ccccc2)n1,>57,0.5%
CN(C)c1ccc(-c2cncnc2N(C)Cc2ccco2)cc1,>57,-16.5%
CCOC(=O)CSc1cccc2cccnc12,>57,-15.3%
CC(C)(C)OC(=O)N1CCC[C@H]1c1nnc(SCc2c(Cl)cccc2Cl)o1,>57,?
Cc1nnc(SCC(=O)NCc2ccc(Cl)cc2)[nH]c1=O,>57,0.6%
CC12C(=O)N(CCC(=O)O)C(=O)C1C1C=CC2C1 (stereo not given),>57,0.8%
Cc1ocnc1C(=O)Nc1ccc(Cl)cc1,>57,-7.4%
CCOc1ccc(NC(=O)CSc2nc3c(c(=O)n2C)SC(C)C3)cc1 (stereo not given),>57,?
COC(=O)Cn1c(=O)cnc2ccccc21,>57,-4.6%
N#Cc1c(/N=C/c2ccco2)sc2c1CCCCC2,>57,0.9%
CN[C@@H](c1ccncc1)[C@@H](NC)c1ccncc1,>57,-4.6%[8 µM]
COc1ccccc1Nc1nc(C2(C)CCC(=O)O2)cs1 (stereo not given),>57,-12.9%
CC(C)(C)CNCCO,>57,-6.0%[8 µM]
CCC(Sc1nc2cc(OC)c(OC)cc2c2nc(C)nn12)C(=O)NCc1ccco1 (stereo not given),>57,3.5%
CCC(C)C1C(C#N)=C(N)OC2=C1C(=O)CC(C)(C)C2 (stereo not given),>57,?
CC(C)CN=C(N)N=C(N)N,>57,-8.8%[8 µM]

# Already shown: an excerpt of the list.
SMILES,Prx2 Sm inh,LT uptake inh
COc1ccccc1Nc1nc(C2(C)CCC(=O)O2)cs1 (stereo not given),>57,-12.9%
CC(C)(C)CNCCO,>57,-6.0%[8 µM]
CCC(Sc1nc2cc(OC)c(OC)cc2c2nc(C)nn12)C(=O)NCc1ccco1 (stereo not given),>57,3.5%
CCC(C)C1C(C#N)=C(N)OC2=C1C(=O)CC(C)(C)C2 (stereo not given),>57,?
CC(C)CN=C(N)N=C(N)N,>57,-8.8%[8 µM]

# Other entries
SMILES,Prx2 Sm inh,LT uptake inh
CCCC(c1nnnn1Cc1ccc(OC)cc1)N1CCN(c2ccccc2)CC1 (stereo not given),>57,-8.6%
C=CCn1c(=O)c2ccccc2n2c(SCC(=O)c3ccccc3)nnc12,>57,-2.1%
CC(C)(C)Cn1nc(-c2ccc(Cl)cc2)c2c(N)ncnc21,>57,?
COc1cccc(C2=NOC(C(=O)Nc3cc(C)nn3-c3ccccc3)C2)c1OC (stereo not given),>57,?
Cc1ccc(CS(=O)(=O)CCC(=O)NCCCN2CCCC2)cc1,>57,10.4%
CCCCCCn1c(CN2CCN(CCO)CC2)nc2c1c(=O)n(C)c(=O)n2C,/,-11.6%
COC(=O)c1cccc(NC(=O)CN2CCC(NC(=O)c3cc(OC)c(OC)c(OC)c3)CC2)c1,/,-5.3%
O=C(Cn1nc(C(F)(F)F)c2c1CCCC2)NC1CCCC1,>57,?
C=CC(C)(O)CCCC(C)CCCC(C)CCCC(C)C (stereo not given),/,?
O=C(Cn1cccc1C(=O)c1ccccc1)NCc1cccs1,>57,6.4%
CN(C)CCCN1C(=O)C(=O)/C(=C(/O)c2ccncc2)C1c1cccc(Br)c1 (stereo not given),>57,-5.3%
CCOc1ccccc1NC(=O)CSc1nnc(Cc2cccn2C)n1-c1ccc(F)cc1,>57,-25.9%
COc1ccc(NC(=O)c2oc3ccccc3c2C)c(OC)c1,/,3.4%
O=C(Nc1cccc(Cl)c1)Nc1nccs1,>57,-3.5%
C=CCN1CC(c2nc3ccccc3n2Cc2ccccc2)CC1=O (stereo not given),>57,7.8%
CCN1C(=O)[C@H]2[C@H]3[C@H](O)[C@H](O)C/C(=N/OCC(C)C)[C@@H]3CC[C@@H]2C1=O,/,-4.1%[1.6 µM]
CNCCc1ccccn1,>57,-4.7%[3.58 µM]
Cc1cnc(CNc2ncncc2-c2cccc(C#N)c2)cn1,>57,-1.6%
CC1Cc2nc(SCC(=O)NC3CCCCC3)n(C)c(=O)c2S1 (stereo not given),>57,8.2%
O=C(NC1CCCC1)c1ccc(CS(=O)(=O)c2cccc(C(F)(F)F)c2)o1,>57,-1.4%
Cc1ccc(C(=O)NC(C)(COc2nonc2C)COc2nonc2C)cc1,>57,-3.8%
CCCCC(CC)COC(=O)c1ccc(N(C)C)cc1 (stereo not given),/,?
CCn1c(SCC(=O)NCc2ccco2)nnc1C(C)C,>57,-2.8%
COc1ccc(NC(=O)c2cc(C)on2)cc1OC,>57,6.6%
COc1ccc(OCC(=O)Nc2cccc(C(C)=O)c2)cc1,/,-2.1%
CC(C)c1nnc(NC(=O)CCC(=O)N2CCN(C3CCCCC3)CC2)s1,>57,-24.1%
Cc1c(NC(=O)CCN2C(=O)c3ccccc3C2=O)c(=O)n(-c2ccccc2)n1C,>57,-4.5%
Cc1ccc(S(=O)(=O)N(C)CC(=O)N2CCc3ccccc32)cc1,>57,-3.1%
CCOC(=O)c1cnn(-c2nc(CC)nc3sc4c(c23)CCC4)c1N,>57,-1.8%
O=C(CN1CCN(Cc2ccc3c(c2)OCO3)CC1)N1CCc2[nH]c3ccccc3c2C1,>57,-22.6%

# In another format: results already given.
# The line under a structure holds: Prx2 Sm inh | LT uptake inh
Cc1cnc(CNc2ncncc2-c2cccc(C#N)c2)cn1
    >57 | -1.6%
CC1Cc2nc(SCC(=O)NC3CCCCC3)n(C)c(=O)c2S1 (stereo not given)
    >57 | 8.2%
O=C(NC1CCCC1)c1ccc(CS(=O)(=O)c2cccc(C(F)(F)F)c2)o1
    >57 | -1.4%

# Returning to the listing; the 2 compounds before the break are reprinted first.
SMILES,Prx2 Sm inh,LT uptake inh
CCOC(=O)c1cnn(-c2nc(CC)nc3sc4c(c23)CCC4)c1N,>57,-1.8%
O=C(CN1CCN(Cc2ccc3c(c2)OCO3)CC1)N1CCc2[nH]c3ccccc3c2C1,>57,-22.6%
COc1ccc(C[C@H]2NC[C@H](O)[C@@H]2OC(C)=O)cc1,>57,?
CN1CCN(c2ncc3nc(-c4ccc(Cl)cc4)c(=O)n(Cc4cccs4)c3n2)CC1,>57,?
CN(C(=O)COC(=O)c1nc(-c2ccccc2)n(-c2ccccc2)n1)C1CCS(=O)(=O)C1 (stereo not given),>57,6.2%
C=CCn1c(COc2ccc(Cl)cc2)nnc1SCC(=O)NCC(=O)OCC,>57,14.9%
Cc1c(NC(=O)CC2CC(C)OC2=O)c(=O)n(-c2ccccc2)n1C (stereo not given),>57,?
O=S(CC(O)COCc1ccc(Cl)cc1)c1ccccn1 (stereo not given),/,?
CCOC(=O)c1cccc(NC(=O)CCS(=O)(=O)c2cccc3nsnc23)c1,>57,-1.7%
CC(C)(C)NC(=O)c1ccc(NC(=O)C2COc3ccccc3O2)cc1 (stereo not given),>57,14.1%
CCOC(=O)N1CCN(C(=O)CSc2nc3c(c(=O)n2-c2ccccc2OC)SCC3)CC1,>57,-1.8%
COC(=O)c1ccccc1NC(=O)NCc1ccccn1,>57,?
CS(=O)(=O)N(Cc1ccco1)CC(O)Cn1c2ccccc2c2ccccc21 (stereo not given),>57,10µM*
Cc1nc2ccc(-n3ccc(=O)cc3)cc2s1,>57,1.0%
Cc1ccc(S(=O)(=O)N(C)CCCC(=O)NCc2ccc3c(c2)OCO3)cc1,>57,-23.2%
CCOc1ccccc1N1CCN(S(=O)(=O)c2cccc3nsnc23)CC1,/,-4.7%
CCn1c2ccccc2c2cc(C3C(C#N)=C(C)NC(C)=C3C#N)ccc21,>57,-28.8%
CC1(C)CC(=O)C2=C(C1)OC(N)=C(C#N)C21CCN(C(=O)OCc2ccccc2)CC1,>57,5.0%
CCCCn1c(=O)[nH]c(=O)c2c1nc(-c1ccncc1)n2CCOC,>57,?
CCCNC(=O)OC[C@@H]1O[C@H](CCO/N=C(\C)CCN2CCc3nc(-c4ccccc4)c(-c4ccccc4)cc3C2)C=C[C@@H]1Oc1ccc(OC)cc1,/,-3.6%[8 µM]
CCn1c(NC(=O)Nc2ccccc2OC)nc2ccccc21,>57,-8.5%
CCOc1ccc(S(=O)(=O)NCCC(=O)OC(C)C(=O)N2CCc3ccccc32)cc1 (stereo not given),>57,-1.3%
Cc1c(-c2ccco2)[n+](=O)c2c(n1[O-])CCC2,>57,6.8%
CCOC(=O)c1[nH]c2ccc(F)cc2c1NC(=O)C1=COCCO1,>57,1.2%
Cc1cc(=O)oc2cc(OC(C)C(=O)O)c(Cl)cc12 (stereo not given),>57,16.7%
O=C1C(Cl)=C(N2CCOCC2)C(=O)N1CCc1ccccc1,>57,-15.6%
Cc1ccccc1N1CCN(c2ncnc3c2cnn3Cc2ccc(Cl)cc2)CC1,>57,-27.4%
CCCOC(=O)c1ccc(Oc2c(-c3ccc(OCC)cc3O)n[nH]c2C)cc1,>57,?

# An excerpt. The share of hits here may be higher or lower than overall.
